# HCMV UL50-53 inh: disrupts HCMV UL50-UL53 complex binding; 190,000 compounds, 0.15% hits; AID 1918969; HTRF UL50-UL53 interaction, normalized percent inhibition; inhibition, % (no concentration beside the values);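 active means both replicates at 50% or more, plus weaker picks with an unusually low signal ratio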;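 further: stock transfer was 100 nL into about 20 µL; 0% = negative control wells and 100% = wells with untagged competitor protein; inactives centre near -12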
# * marks the source's active call; other numbers are inactive results; & = joins results of further samples.
smiles	HCMV UL50-53 inh
CC1CC(OC(=O)C(O)c2ccccc2)CC(C)(C)N1C (centres undefined)	-10
CC1(C)CC2CC(C)(CN2C(=O)C2CCN(S(=O)(=O)c3cccs3)CC2)C1 (centres undefined)	-9
CC(C)Cc1cn(C2CCN(C3Cc4ccccc4C3)CC2)nn1	-12
O=C(Nc1ncc(-c2ccccc2)s1)c1cccc(N2C(=O)CCC2=O)c1	-14
O=C(O)c1ccc(CNC2CCS(=O)(=O)C2)cc1 (centres undefined)	-6
CC/C=C\C/C=C\C/C=C\C/C=C\C/C=C\CCCC(=O)O[C@H](COCCCCCCCCCCCCCCCC)COP(=O)([O-])OCC[N+](C)(C)C	8&8
O=C(NC(Cn1cccn1)c1ccccc1)c1ccc2nccnc2c1 (centres undefined)	-58
COC(=O)c1c(C)oc2ccc(NS(=O)(=O)c3ccc(C)cc3)cc12	-4
C/C(O)=C(/C#N)c1nnc2n1CCCCC2	-15
Cc1ccc(S(=O)(=O)NCCSc2nncn2C)cc1	-9
Cc1ccc(/C=C2/SC(=S)N(CCC(=O)N3CCOCC3)C2=O)cc1	-9
Cc1cc2ncn(Cc3ccccc3F)c2cc1C	-8
CC(C)(C)c1csc(NC(=O)c2ccc3c(c2)OCCO3)n1	8
Cc1ccc(Cl)cc1NC(=O)CC(C(=O)O)N(C)C (centres undefined)	0
CCn1nc(CC(C)C)cc1C(=O)N1CCC(n2cc(C(C)(C)O)nn2)CC1	-23
CCN(C(=S)Nc1ccc(C)cc1)c1ccccc1	-13
CCCCCCCCCCCCCCCCCC(=O)N[C@H]1CCOC1=O	-16&-16
CCCn1nc(NC(=O)Cn2ccc(-c3ccccc3F)n2)c2ccccc21	-16
CCCc1nnc(SCC(=O)O)n1N	9
COC(=O)C1=C(C)NC(C)=C(C(=O)OC2CCCN(Cc3ccccc3)C2)C1c1cccc([N+](=O)[O-])c1 (centres undefined)	-2&-69
NC(=O)CC1SC(=O)N=C1N (centres undefined)	-5
CCOC(=O)c1c(-c2ccccc2)oc2ccc(O)c(CN3CCOCC3)c12	-2
CC1(C)C(C=C(Cl)Cl)C1C(=O)Nc1ccccc1 (centres undefined)	2
Cc1cc2nnc(SCC(=O)N3CCCC3)n2c2ccccc12	-8

# The last 6 records of the part above are carried over, then new ones follow:
smiles	HCMV UL50-53 inh
CCCc1nnc(SCC(=O)O)n1N	9
COC(=O)C1=C(C)NC(C)=C(C(=O)OC2CCCN(Cc3ccccc3)C2)C1c1cccc([N+](=O)[O-])c1 (centres undefined)	-2&-69
NC(=O)CC1SC(=O)N=C1N (centres undefined)	-5
CCOC(=O)c1c(-c2ccccc2)oc2ccc(O)c(CN3CCOCC3)c12	-2
CC1(C)C(C=C(Cl)Cl)C1C(=O)Nc1ccccc1 (centres undefined)	2
Cc1cc2nnc(SCC(=O)N3CCCC3)n2c2ccccc12	-8
CCOC(=O)COc1c(Br)cc(Br)c2cccnc12	-14
COc1ccc(-c2nc3scc(-c4ccccc4)n3n2)cc1	7&-8
CCCCC[C@H](O)/C=C/[C@H]1[C@@H](O)CC(=O)[C@@H]1CCCCCCC(=O)O	1&1
CCC(=O)NCCc1cc2ccc(C)cc2[nH]c1=O	-15
COc1ccc(-n2ccsc2=S)cc1	-3
Cc1sc2ncnc(SCC(=O)c3ccc4c(c3)OCCO4)c2c1C	-11
CCc1cc(Cl)c(OC)c(C(=O)NCC2CCCN2CC)c1O (centres undefined)	-71
O=C(Nc1nnc(-c2ccc3c(c2)CCCC3)o1)C1CCCCC1	10
CN1CCN(NC(=S)Nc2ccc(S(N)(=O)=O)cc2)CC1	-24
CCCCCCN(CCCCCC)C(=O)Cc1c(-c2ccc(Cl)cc2)[nH]c2ccc(Cl)cc12	-9
COC(=O)[C@H](Cc1ccccc1)NC(=O)/C=C/c1ccc(O)cc1	-14&-14
Cc1c(C)n(CC(O)CNCC2CCCO2)c2ccccc12 (centres undefined)	-2
CCn1c(CCCNC(=O)Cc2ccccc2)nc2ccccc21	-8
Cc1sc2ncn(-n3cccc3)c(=O)c2c1C	-10
COc1ccccc1OCc1nc2ccccc2[nH]1	-4
Oc1ccc(-c2cnc(-c3ccc(O)cc3)nc2)cc1	-3
Cc1c(C(=O)N2CCN(c3cccc(Cl)c3)CC2)sc2nc[nH]c(=O)c12	-14
CCN1C(=O)N(CCc2ccccc2)C2(CCN(Cc3cnn(-c4ccccc4OC)c3)CC2)C1=O	-6
CN(C)CCN1C(=O)C(=O)/C(=C(/O)c2ccc(Cl)cc2)C1c1cccs1 (centres undefined)	-34
CCN1C(=O)/C(=C\c2ccc(NC(=O)C(F)(F)F)cc2)SC1=S	-4
CCC(=O)NCCCc1nc2ccccc2n1C(C)C	2
Cn1c(=NC(=O)c2ccc(N3C(=O)CCC3=O)cc2)sc2ccccc21	-4
N#CC(C#N)=C(NC(=O)c1ccccc1Cl)Nc1ccc(Cl)cc1	-4
CC1CN(C(=O)c2cccc3c2-c2ccccc2C3=O)CC(C)O1 (centres undefined)	-33

# At a glance, part of the list above.
smiles	HCMV UL50-53 inh
CCC(=O)NCCCc1nc2ccccc2n1C(C)C	2
Cn1c(=NC(=O)c2ccc(N3C(=O)CCC3=O)cc2)sc2ccccc21	-4
N#CC(C#N)=C(NC(=O)c1ccccc1Cl)Nc1ccc(Cl)cc1	-4
CC1CN(C(=O)c2cccc3c2-c2ccccc2C3=O)CC(C)O1 (centres undefined)	-33

# Remaining list, next part
smiles	HCMV UL50-53 inh
C=C(C)CSCc1nc2ccccc2[nH]1	3
Cc1cc(CN2CCC(Cc3ccc(F)cc3)CC2)n(C)n1	-6
O=C(Cc1ccccc1)Nc1nnc(SCC(=O)N2CCCc3ccccc32)s1	-16
Cc1nc2ccccc2cc1C(=O)Nc1cccc(F)c1	0
CCOC(=O)c1sc2nc3c(cc2c1N)C(=O)CCC3	-26
Cc1cc2ccccc2n1CCNC(=O)C1CCCC1	-2
Oc1cccc(-c2nc(N3CCOCC3)c3sccc3n2)c1	-7&-36&-36
COc1cccc2ccc(-c3ccccc3)nc12	-65
C=CCOc1ccc(C2c3c(oc4ccc(F)cc4c3=O)C(=O)N2CCOC)cc1 (centres undefined)	-3
COC(=O)CCC(=O)Nc1sc2c(c1C(=O)OC)CCCC2	2
COC(=O)CC(c1ccc(C#N)cc1)n1c(C)ccc1C (centres undefined)	-6
CC[N+](C)(CC)CCOC(=O)C1c2ccccc2Oc2ccccc21	-16
COc1ccc(-c2ncncc2-c2csc(C)n2)c(O)c1OC	-19
O=S(=O)(c1ccc(F)cc1)N1CCc2ccccc21	-16
O=C(/C=C/c1ccccc1)Nc1c2c(nn1-c1ccccc1)CSC2	-25
CCOC(=O)OC(C)OC(=O)[C@@H]1N2C(=O)[C@@H](NC(=O)[C@H](N)c3ccccc3)[C@H]2SC1(C)C (some centres undefined)	-9
CCCc1cc2c(=O)c(-c3ccccn3)coc2cc1O	-21
Cc1cc(S(=O)(=O)N2CCOCC2)ccc1F	-1
Cc1c(CNC(=O)C(=O)c2c(-c3ccccc3)cc3ccccn23)cnn1C	-46&-46
COC(=O)c1cc(Br)c(-n2cccc2)cc1OC	12
Cc1cc(C)c(C(=O)O)c(N)n1	-2
CN(Cc1ccccc1)C(=O)[C@H](Cc1ccc2ccccc2c1)NC(=O)[C@@H]1C[C@@H](O)CN1C(=O)c1cn(C)c2ccccc12	0
C[C@]12CCC(O)CC1=CCC1C2CC[C@]2(C)C(n3cnc4ccccc43)=CCC12 (some centres undefined)	-8
O=C(O)c1ccc(-c2ccc3cc(C45CC6CC(CC(C6)C4)C5)c(O)cc3c2)cc1	-98
NCCCNC1CCN(c2ccc(-c3cccc(F)c3)cc2)CC1	5
CC(C)c1cc(C(=O)N2CCCC(c3ccccc3)C2)on1 (centres undefined)	-10
CCCCc1cn(C2CCN(C3Cc4ccccc4C3)CC2)nn1	-7
N#Cc1ccc(OCc2ccc(Cl)nc2)cc1	-7
Cc1ccc(C)c(/C(O)=C2/C(=O)C(=O)N(CCc3ccccc3)C2c2ccc(O)cc2)c1 (centres undefined)	-2
COCCn1c(C)cc(C(=O)CSc2ncnc3sc(C)c(C)c23)c1C	-13
CC(=O)Nc1ccc(OCC(O)CN2C(C)(C)CC(O)CC2(C)C)cc1 (centres undefined)	-20
Cc1cccc2c(C(=O)N3C4CCCCC3CCC4)cc(-c3cncnc3)nc12	-27&-27
O=C1CN(C(=O)/C=C/c2ccccc2)CCN1	-29
COc1ccc(C(=O)N2CCc3cc(OC)c(OC)cc3C2)cc1OC	10
CC(C)(C)OC(=O)NC1CCCCCC=CC2C[C@@]2(C(=O)NS(=O)(=O)C2CC2)NC(=O)C2CC(OC(=O)N3Cc4cccc(F)c4C3)CN2C1=O (some centres undefined)	-2
COc1cc(N2CCN(Cc3ccccc3F)C(=O)C2)ncn1	-22&-22
O=C(O)CSc1cccc2cccnc12	-36
CN1C(=O)/C(=C2\SC(=S)N(c3ccc(C(=O)O)cc3)C2=O)c2ccccc21	-22
O=S1(=O)CCC(NC(=S)SCc2ccccc2)C1 (centres undefined)	-2
CC(C)C(=O)Nc1sccc1C#N	-17
CCCOc1cccc2c1CCN(C)C2=O	-14
O=C(O)CCCCc1ccccc1	-27
Cn1c(SCC(=O)c2ccccc2)nnc1-c1cccs1	1
NS(=O)(=O)c1ccc(-c2ccc(C=C3NC(=S)NC3=O)o2)cc1	-64
CSc1nc2ccc3nc(N)sc3c2s1	-2
CC[C@@H](C)[C@H]1O[C@]2(CC[C@@H]1C)C[C@@H]1C[C@@H](C/C=C(\C)[C@@H](O[C@H]3C[C@H](OC)[C@@H](O[C@H]4C[C@H](OC)[C@@H](O)[C@H](C)O4)[C@H](C)O3)[C@@H](C)/C=C/C=C3\CO[C@@H]4[C@H](O)C(C)=CC(C(=O)O1)[C@]34O)O2 (some centres undefined) (tested in a mixture with another compound)	-5
CC1(C)CC(=O)C=C(NCC(=O)O)C1	-13
O=C(O)CC(O)c1nc2ccccc2[nH]1 (centres undefined)	6

# As entered above:
# O=C(O)CSc1cccc2cccnc12 – HCMV UL50-53 inh: -36
# CC[C@@H](C)[C@H]1O[C@]2(CC[C@@H]1C)C[C@@H]1C[C@@H](C/C=C(\C)[C@@H](O[C@H]3C[C@H](OC)[C@@H](O[C@H]4C[C@H](OC)[C@@H](O)[C@H](C)O4)[C@H](C)O3)[C@@H](C)/C=C/C=C3\CO[C@@H]4[C@H](O)C(C)=CC(C(=O)O1)[C@]34O)O2 (some centres undefined) (tested in a mixture with another compound) – HCMV UL50-53 inh: -5

# New compounds follow:
smiles	HCMV UL50-53 inh
O=S(=O)(/C=C/c1ccccc1)N1CCN(c2ccc(F)cc2)CC1	9
Cc1cc(CN2CCNCC2)ccc1OC1(C(=O)O)CCSCC1	-12
O=CC(O)C(O)C(O)CO (centres undefined)	-18
O=C(c1ccccc1)c1cn(Cc2cccc(F)c2)c2ccc(F)cc2c1=O	-10
CCCCCCCCCCCCCCCCO	-11
CCCCC/C=C\C/C=C\CCCCCCCC(=O)OCC(COC(=O)CCCCCCCCCCCCCCC)OC(=O)CCCCCCC/C=C\CCCCCCCC (centres undefined)	-21&-21
Cc1nc(SC(C(=O)O)c2ccccc2)cc(-c2ccccc2)n1 (centres undefined)	0
COC(=O)CCSCc1ccc(-c2onc(C)c2NC(=O)OC(C)c2ccccc2Cl)cc1 (centres undefined)	-19
O=C1/C(=C/c2ccccc2)SC(=Nc2ccc(O)cc2)N1c1ccc(O)cc1	-17
CCC(C)[C@H]1O[C@]2(CCC1C)CC1C[C@@H](CC=C(C)C(O[C@H]3CC(OC)C(O[C@H]4CC(OC)C(O)C(C)O4)C(C)O3)C(C)C=CC=C3CO[C@@H]4C(O)C(C)=C[C@H](C(=O)O1)[C@]34O)O2 (some centres undefined)	-2
O=C1OC[C@@H](Cc2cccc(O)c2)[C@@H]1Cc1cccc(O)c1	-8&-8
CN1CCc2c(OCC(=O)N3CCC(Cc4ccccc4)CC3)cccc2C1=O	-5
Cc1sc2ncnc(SCC(=O)N3CCOCC3)c2c1C	-10
COc1ccc(CC(=O)NCC2CCCO2)cc1 (centres undefined)	-2
CCNc1nc2ccccc2n1Cc1cccc(Cl)c1	10
Fc1cccc(F)c1-c1nc2c(cnn2Cc2cccs2)[nH]1	-13&-13
O=c1cc(-c2ccccc2)c2ccc(O)c(CN3CCOCC3)c2o1	-37
CCc1nc(CNc2cc(C(=O)NCc3ccccn3)cc(S(=O)(=O)N3CCCC3)c2)c(C)[nH]1	1
Cc1nn(-c2ccccc2)c(OC(=O)C2CC2)c1S(=O)(=O)c1ccccc1	-2
CCn1c(=NC(=O)c2ccc(S(=O)(=O)N3CCCC3)cc2)sc2ccccc21	8
O=C(C1COc2ccccc2C1)N1CC(=O)N(C2CCCCC2)CC(OCc2ccccn2)C1 (centres undefined)	2
Cc1cccc(-n2ncc3c(N4CC(C)OC(C)C4)ncnc32)c1 (centres undefined)	-4
Cc1ccccc1N1C(=O)C(Cc2ccccc2)S/C1=C(/C#N)C(N)=O (centres undefined)	-6
N#Cc1c(-c2ccccc2)noc1/C=C/NCc1ccccc1	-10
CCCN(CCC)S(=O)(=O)c1ccc(C(=O)Nc2nccs2)cc1	-17
Cc1cc(C)nc(SCCS(=O)c2ccc(C(C)(C)C)cc2)n1 (centres undefined)	2
CC1(C)O[C@@H]2C[C@H]3[C@@H]4CCC5=CC(=O)C=C[C@]5(C)[C@@]4(F)[C@@H](O)C[C@]3(C)[C@]2(C(=O)CO)O1	-13
CO/N=C(/C(=O)N[C@@H]1C(=O)N2C(C(=O)OCSC(=O)c3ccco3)=CCS[C@H]12)c1csc(N)n1	-27
CC1(C)CC(=O)c2cc(C#N)c(SCC(=O)N3CCc4ccccc43)nc2C1	7
O=S(=O)(c1ccc2c(c1)OCCO2)N1CCN(c2cccc(C(F)(F)F)c2)CC1	-13
c1ccc(OCCn2cnc3ccccc32)cc1	-5
NC(=O)Nc1cc(-c2cccc(F)c2)sc1C(=O)NC1CCCNC1 (centres undefined)	-109&-11&-12&-27&-55&-47&-88&-88
O=C1N[C@@H](COCc2ccccc2)C(=O)N2C[C@@H](NCc3cnn(-c4cccc(F)c4)c3)C[C@@H]12	1

# The list is partial (hit frequency here may not be typical).
